Sfp inh = qHTS Assay for Inhibitors of Bacillus subtilis Sfp phosphopantetheinyl transferase (PPTase) | actives 3.5% (n = 310,000) | Potency, µM, without a hit: max response, negative = inhibition, most hits filed as inhibitors | Biochemical Sfp PPTase activity, qHTS | 4'-phosphopantetheinyl transferase ffp (Bacillus subtilis), Q9F4F7; active means well fitted inhibition curve with a large enough effect; inconclusive means small, poorly fitted or top-dose-only effect, or another doubt; inactive means no such curve, though single readings can be large or run the other way;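 further: the enzyme is Sfp with the accession as filed and its product quenches rhodamine fluorescence; potency means the concentration at half of the fitted maximal effect; 0% = enzyme reaction without inhibitor and -100% = no enzyme wells; top concentration of the series not given in the record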
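Fluorescence-quenching assay: 15 nM Sfp-PPTase preincubated 15 min at room temperature with compound, then 5 uM rhodamine-CoA and 12.5 uM BHQ-2-labelled YbbR peptide added. Fluorescence (ex 525/em 598 nm) read at start and after 30 min; difference gives rate.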
Menin MLL FP FL = qHTS Assay for Inhibitors Targeting the Menin-MLL Interaction in MLL Related Leukemias: Competition With Fluorescein Labeled MLL-derived Peptide | 290,000 tested, under 10 active | AID 1766, 2009 | FP activity change, % at 61.4 µM | Fluorescence polarization, fluorescein-MLL peptide displacement from menin; inconclusive = falling polarisation curve, or a change in total fluorescence; inactive = total fluorescence flat and polarisation flat or rising; no compound was filed as active; the % refers to the polarisation; negative = inhibition;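 further: % of control where 0% means no effect; inhibitors lower the polarisation; unlabelled MLL peptide was the positive control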
CtBP-E1A blk = qHTS Assay for Inhibitors of the CtBP/E1A Interaction; activity change, % (concentration not given with the values); actives 0.49% (n = 340,000); AlphaScreen GST-E1A/His-CtBP binding, 1536-well; hits give low values; control for the full effect not named in the record; CtBP / adenovirus E1A interaction (AlphaScreen); in the data active means activity change below about -65%; inconclusive means about -30% to -65%; inactive means above about -30%; further: on the % scale 0 is the no-effect control and ±100 the full control effect
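GST-E1A and His-tagged CtBP (125 nM each as 5X stock) were preincubated with pin-transferred compound for 2 h at 37 °C in the dark, then glutathione donor and nickel acceptor beads were added for 1 h before AlphaScreen reading.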
ClpP mod = qHTS Assay for Activators of ClpP; ATP-dependent Clp protease proteolytic subunit (Bacillus subtilis (strain 168)), P80244; purified B. subtilis ClpP, FRET peptide cleavage, 20 min; actives 1.9% (n = 340,000); Potency, µM (series often up to 57.5 µM), without a hit: top-dose activity change, negative = active; active = well fitted falling curve with a large enough effect; inconclusive = small, poorly fitted or top-dose-only effect; inactive = no such curve, though single readings can be large or run the other way; further: potency means the concentration at half of the fitted maximal effect; the source files actives as falling curves though it sought activators and does not explain the sign; nearly all actives have a fitted effect of over 65% in size; many hits overshoot -100%
Target sequence (P80244 whole entry, looked up): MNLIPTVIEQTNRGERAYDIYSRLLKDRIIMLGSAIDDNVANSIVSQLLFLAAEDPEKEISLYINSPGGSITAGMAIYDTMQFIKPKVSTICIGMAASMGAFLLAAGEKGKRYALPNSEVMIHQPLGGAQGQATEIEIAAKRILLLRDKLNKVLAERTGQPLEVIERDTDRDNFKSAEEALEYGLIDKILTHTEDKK
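FRET quenching reversal measured ClpP activation: 10 microg/mL B. subtilis ClpP at pH 8 with the FRET-FV decapeptide, read at 430 nm after 320 nm excitation. The 20-min minus 0-min signal was scaled between DMSO/no-enzyme wells and ADEP (5.8 microM final).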
gsp antagonist = qHTS for Antagonists of gsp, the Etiologic Mutation Responsible for Fibrous Dysplasia/McCune-Albright Syndrome: qHTS; AID 624288, 2012; gsp-mutant cells, cAMP HTRF, 30 min; control for the full effect not named in the record; Potency, µM (top dose mostly 76.9 µM), without a hit: at the top dose activity change, negative = inhibition, actives largely listed as inhibitors; actives 0.4% (n = 340,000); active = falling curve of any shape with a large fitted effect; inconclusive = falling curve, mostly with a smaller effect; inactive = flat or rising curve; cell line not stated here;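 further: intracellular cAMP measured with PDE inhibitor Ro 20-1724 present during compound exposure; potency means the concentration at half of the fitted maximal effect; on the % scale 0 is the no-effect control and ±100 the full control effect; nearly all actives have a fitted effect of over 65% in size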
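Cells in G418 medium, seeded 16-24 h, 37C; buffer exchange to DPBS + 1 mM CaCl2, 0.5 mM MgCl2, 0.05% BSA; cpds in DMSO + […] (300 uM stock), 30 min 37C; HTRF cAMP detection.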
gsp ag = qHTS for Agonist of gsp, the Etiologic Mutation Responsible for Fibrous Dysplasia/McCune-Albright Syndrome: qHTS. gsp mutant cells, cAMP HTRF, 30 min; control for the full effect not named in the record. Potency, µM (doses to about 76.9 µM), without a hit: top-dose activation (cAMP increase), actives largely listed as activators. actives 0.13% (n = 340,000). AID 624287, 2012; active = well fitted activation curve with a large enough effect; inconclusive = small, poorly fitted or top-dose-only effect, or another doubt; inactive = no such curve, though single readings can be large or run the other way; cell line not stated here;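 further: phosphodiesterase inhibitor Ro 20-1724 added with compounds to block cAMP breakdown; potency means the concentration at half of the fitted maximal effect; nearly all actives have a fitted effect of over 60% in size; about a fifth of the inactives were tested at one dose only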
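Cells stably selected in G418 were plated at 2000/well, grown 16-24 hr, then given compounds in DMSO with the PDE inhibitor […] (300 uM solution added) for 30 min at 37C; cAMP was read by HTRF.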
TRPV1 PAM = HTS Assay for Compounds that Act as Potentiators of the Vanilloid Receptor 1 | Transient receptor potential cation channel subfamily V member 1 (Homo sapiens), Q8NER1 | TRPV1-expressing cells, Fluo-8 calcium influx, capsaicin EC20 potentiation; host cell line not named in the record; control for the full effect not named in the record | potentiation, % at 8.33 µM | actives 0.02% (n = 320,000); active means potentiation above 80%; inconclusive means 30% to 80%; inactive means below 30%; further: 0% is about no effect
Target sequence (Q8NER1 whole entry, looked up): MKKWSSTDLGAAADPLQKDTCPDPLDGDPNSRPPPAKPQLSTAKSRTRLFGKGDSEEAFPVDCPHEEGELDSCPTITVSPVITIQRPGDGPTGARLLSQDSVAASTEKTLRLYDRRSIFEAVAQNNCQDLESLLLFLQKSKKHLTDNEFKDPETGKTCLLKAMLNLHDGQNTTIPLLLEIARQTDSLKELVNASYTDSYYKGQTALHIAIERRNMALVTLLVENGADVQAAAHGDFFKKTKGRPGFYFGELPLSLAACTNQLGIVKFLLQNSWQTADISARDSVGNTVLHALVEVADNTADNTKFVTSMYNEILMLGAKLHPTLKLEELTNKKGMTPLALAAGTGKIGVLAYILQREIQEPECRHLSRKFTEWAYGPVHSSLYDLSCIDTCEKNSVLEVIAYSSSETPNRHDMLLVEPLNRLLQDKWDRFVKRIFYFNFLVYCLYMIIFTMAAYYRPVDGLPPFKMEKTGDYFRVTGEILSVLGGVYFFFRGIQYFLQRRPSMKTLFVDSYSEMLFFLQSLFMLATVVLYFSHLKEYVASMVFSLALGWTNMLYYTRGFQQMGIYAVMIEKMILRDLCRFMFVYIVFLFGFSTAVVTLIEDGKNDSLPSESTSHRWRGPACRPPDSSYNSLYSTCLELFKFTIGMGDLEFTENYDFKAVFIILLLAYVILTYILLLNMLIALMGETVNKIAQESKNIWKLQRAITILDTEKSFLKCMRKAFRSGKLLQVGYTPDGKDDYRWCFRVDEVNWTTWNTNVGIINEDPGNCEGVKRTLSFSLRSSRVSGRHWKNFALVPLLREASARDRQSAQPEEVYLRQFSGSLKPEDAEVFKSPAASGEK
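Cells expressing TRPV1 were dye-loaded with Fluo-8 and read kinetically: 10 s baseline, 3 min after compound (agonist portion), then 2 min after EC20 capsaicin (allosteric enhancer portion). Calcium-bound dye fluorescence at 480/520 nm.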
Starred values were filed as active, the others as inactive; u = inconclusive; x = no result given; [ ] = dose if it differs, or a comment. This is a random part of the collection, and some 5.3% of all compounds hit somewhere here.

SMILES | Sfp inh | Menin MLL FP FL | CtBP-E1A blk | ClpP mod | gsp antagonist | gsp ag | TRPV1 PAM
CCOC(=O)c1cc2c(C)n(-c3ccc(OCC)cc3)c(C)c2cc(C(=O)OCC)c1=O | 2.5% | 0.5 | -0.8 | -11.2% | u | -8.1% | -2.2
O=C(CCOc1ccccc1)Nc1ccnn1C1CCN(Cc2ccccc2)CC1 | 20.6% | -1.1 | 3.9 | -0.1% | 4.1% | -15.9% | 6.9
CCN(c1ccccc1)S(=O)(=O)c1cc2c(cc1C)NC(=O)CO2 | -6.1% | -0.1 | -8.4 | 0.3% | -5.4% | -8.3% | -20.0
O=C(COC(=O)c1c2c(nc3ccccc13)CCCC2)c1ccc(Br)s1 | u | 3.7 | -19.0 | -1.4% | -1.0% | u | 8.5
O=C(NCCc1ccc2c(c1)OCCO2)c1cccc(F)c1 | 8.9% | 0.8 | x | 2.3% | -13.1% | -23.9% | -3.7
COc1ccccc1Nc1nc(-c2cccc([N+](=O)[O-])c2)nc2ccccc12 | 79.4µM* | -1.1 | -4.3 | -4.4% | -0.4% | -2.6% | 6.8
COc1ccc(CNc2nc3nc(C)c(Cl)c(=O)n3[nH]2)cc1OC | -1.6% | 1.9 | 3.6 | 0.1% | 5.6% | u | 0.8
CC1=NN(c2ccccc2)C(=O)C1C=Nc1ccccc1O (configuration not stated) | -3.7% | 16.2 | u | x | -14.6% | 9.7%[15.4 µM] | x
Cc1cccc(Nc2nc(-c3ccccc3)c(C(=O)Nc3cccnc3)s2)c1 | 13.1% | -1.3 | 4.7 | x | u | -5.3%[15.4 µM] | -4.4
CC(C)OCCCNC(=O)C(NC(=O)c1ccc(Cl)cc1)C(C)C (configuration not stated) | 7.3% | 0.3 | x | x | 8.3% | -7.6%[15.4 µM] | u
Cc1nnc(SCC(=O)N2CCCCC2)s1 | -5.9% | -1.3 | 5.5 | -0.5% | 8.3% | u | -25.1
CN(C)/C=C/C(=O)c1ccc(Cl)s1 | 10.6% | 8.8 | -5.7 | 0.3% | 0.7% | 12.0% | 24.1
CCOc1cccc(/C(O)=C2/C(=O)C(=O)N(CCOC)C2c2ccc(C)o2)c1 (configuration not stated) | -7.4% | 1.2 | -2.5 | 3.1% | -6.4% | -7.6% | 0.0
CCCCNC(=O)N(O)C1N(CCCC)C(=O)N(CC(=O)OC)C1(C)C (configuration not stated) | 0.2% | -1.2 | 7.7 | -1.7% | 9.8% | -11.5% | 11.2
CCCCOc1ccc(-c2nnc(N)s2)cc1 | 1.2% | 6.5 | 11.1 | -11.6% | 15.4% | -17.5% | 2.4
O=c1[nH]c2nc(Br)[nH]c(=O)c2[nH]1 | x | x | -6.6 | x | 3.7% | -7.9% | x
Cc1ccccc1-n1ncc2c1CC(C)(C)CC2NC(=O)CCN1Cc2ccccc2C1=O (configuration not stated) | 6.9% | 5.1 | 2.5 | -1.2% | u | -65.8%[inhibitor] | 11.9
COc1ccc(N2CCN(CC(=O)Nc3ccc(SC(F)F)cc3)CC2)cc1 | 0.9% | 6.7 | x | -1.4% | 3.0% | -84.8% | -13.5
CCOC(=O)C1CCCN(C(=O)c2cc(Cl)ccc2NC(=O)C2=C(C)OCCS2)C1 (configuration not stated) | -4.6% | x | 0.0 | -1.5% | -2.0% | 7.5% | -30.7
Cc1noc(NS(=O)(=O)c2ccc(NC(=O)C34CCC(CC3)C4)cc2)c1C | 1.2% | 0.4 | 3.0 | 1.0% | -4.3% | -22.1% | -8.2

Gathered by group: those above with an NH in an aromatic ring
SMILES | Sfp inh | Menin MLL FP FL | CtBP-E1A blk | ClpP mod | gsp antagonist | gsp ag | TRPV1 PAM
COc1ccc(CNc2nc3nc(C)c(Cl)c(=O)n3[nH]2)cc1OC | -1.6% | 1.9 | 3.6 | 0.1% | 5.6% | u | 0.8
O=c1[nH]c2nc(Br)[nH]c(=O)c2[nH]1 | x | x | -6.6 | x | 3.7% | -7.9% | x

The results go on:
SMILES | Sfp inh | Menin MLL FP FL | CtBP-E1A blk | ClpP mod | gsp antagonist | gsp ag | TRPV1 PAM
Cc1cc(-c2ccc(/C=N/n3cnnc3)o2)c([N+](=O)[O-])cc1C | u | u | -19.4 | 0.8% | -16.3% | -5.8% | x
C=CCSC1=C(C#N)C(c2ccc(C(C)C)cc2)CC(=O)N1 (configuration not stated) | 44.7µM* | 2.7 | 2.5 | 1.0% | -7.6% | -16.0% | 3.8
Cc1c(C(=O)NCCC2=CCCCC2)oc2ccc(S(=O)(=O)N3CCOCC3)cc12 | -13.2% | -1.6 | 0.1 | -1.2% | -6.8% | -8.2% | -0.7
CN1/C(=c2/s/c(=C3/C(=O)N(c4ccccc4)NC3=Nc3ccccc3)n(C)c2=O)C(C)(C)c2ccccc21 | -15.2% | u | u | 1.0% | -16.8% | -1.9% | 1.6
Cc1ccc(Nc2ccccc2N)cc1 | -23.1% | 1.9 | -7.4 | -1.4% | -11.1% | -10.7%[15.4 µM] | -1.6
COCCCN1C(=O)C(=O)/C(=C(/O)c2ccccc2)C1c1ccc2c(c1)OCO2 (configuration not stated) | 22.5% | 3.1 | 8.5 | 0.7% | 0.7% | u | 5.3
COc1ccccc1C(c1nnnn1Cc1ccccc1)N1CCC(C(N)=O)CC1 (configuration not stated) | -2.0% | -0.5 | -5.1 | -1.6% | -10.0% | -10.4% | -10.3
CCOc1ccc(S(=O)(=O)N(CCO)CCO)cc1-c1nc2c(C(C)(C)C)nn(C)c2c(=O)[nH]1 | 12.7% | 0.7 | 2.3 | -3.9% | 9.6% | 26.8% | 0.1
CCOc1nc(-c2ccc(Cl)cc2Cl)ccc1C#N | -11.7% | -0.4 | 8.5 | -3.0% | 15.8% | 0.1% | 14.6
CC(C(=O)N1CCCCC1)n1ncn2cccc2c1=O (configuration not stated) | 5.2% | 5.8 | 2.5 | 28.2µM* | 7.5% | 12.7% | 22.7
O=NN1CCN(c2ccncc2S(=O)(=O)N2CCCCC2)CC1 | -3.6% | 1.5 | -5.2 | -0.6% | 3.5% | -9.3%[15.4 µM] | 6.9
O=C(CCCc1ccccc1)Nc1cccc(C(=O)O)c1 | 13.8% | -0.1 | 11.3 | x | 6.7% | -2.0% | -4.1
O=C1C(=Cc2cccc(O)c2O)SC(=S)N1CCCN1CCOCC1 | x | x | -10.3 | -1.4% | x | 1.2% | x
COc1ccc(S(=O)(=O)N2CCCCCC2)cc1NC(=O)c1c2c(nc3ccccc13)CCN(Cc1ccccc1)C2 | 1.7% | 7.9 | -6.0 | -0.9% | -15.5% | 55.4% | 1.4
CN(C(=O)CSc1cccc[n+]1[O-])c1ccccc1 | x | x | 6.6 | 0.4% | 11.2% | -2.0% | x
O=C(CCC1CCCCC1)Nc1nccs1 | 12.6% | 3.2 | x | -1.8% | -3.1% | -1.9% | -10.7
COc1ccc(-c2nc(CS(=O)CC(=O)NCCC3=CCCCC3)c(C)o2)cc1 (configuration not stated) | u | -0.1 | 23.7 | -22.7% | -4.3% | u | x
COC(=O)c1nn(-c2ccc(Cl)cc2)c(=O)cc1Sc1ccccn1 | 6.4% | 4.7 | -7.2 | -3.3% | 5.4% | 15.1% | -23.6
CC(=O)n1cc([C@H]2C=C(C(=O)Nc3ccccc3)O[C@@H](OCc3ccc(CO)cc3)C2)c2ccccc21 | 16.2% | 7.5 | -6.9 | -2.9% | -28.1% | x | 28.2
O=C(O)c1c[nH]c2ccc([N+](=O)[O-])cc2c1=O | x | x | 1.6 | x | 5.3% | -7.5% | x
N/C(=N\OC(=O)c1ccc2ccccc2c1)c1ccccc1Cl | -4.7% | x | 12.2 | -3.8% | 9.5% | 3.0% | 3.6
Cc1cccc(NC(=O)c2cccc(N3C(=O)C4CCC(C)CC4C3=O)c2)c1C (configuration not stated) | 18.8% | 0.3 | 1.5 | -2.2% | -6.4% | 2.9% | -5.0
CSc1nnc2c(n1)OC(c1cccn1C)N(C(C)=O)c1ccccc1-2 (configuration not stated) | -4.0% | 1.6 | 10.4 | 0.1% | -1.5% | u | -0.8
COc1ccc(C(=O)NCCSCc2cccc(Cl)c2)cc1OC | 10.4% | 0.1 | -3.4 | -0.5% | -7.6% | 0.1% | -37.9
COc1cccc(C(=O)NCCS(=O)(=O)NCCCc2ccccc2)c1 | x | x | -2.3 | -0.9% | u | u | -1.0
Cc1cc(NC(=O)COC(=O)/C=C/c2ccc(C)o2)no1 | x | x | 11.2 | -3.6% | 8.4% | -3.9% | x
Cc1ccc(OS(=O)Nc2cccc3nccnc23)cc1 (configuration not stated) | -13.8% | -0.2 | 5.5 | 0.2% | -5.1% | 12.9% | 11.1
COc1ccc(-c2nnc(SCC(=O)O)n2Cc2ccccc2)cc1 | 17.6% | -1.3 | -1.9 | x | -0.7% | 25.9% | -1.9
Cc1csc2nc(CNC(=O)C3CCCCC3)cn12 | -2.3% | -0.3 | 5.0 | -1.2% | 8.2% | 14.8% | -8.3
Cc1ccc(NC(=S)NC(=O)c2c(-c3ccccc3Cl)noc2C)cc1 | 2.8% | 1.1 | -12.5 | -1.7% | -12.9% | -65.0%[inhibitor] | 0.7
CC(C)c1ccc(CN(C(=O)C2COc3ccccc3O2)C2CCS(=O)(=O)C2)cc1 (configuration not stated) | -9.3% | 2.4 | -4.4 | -2.3% | u | -15.5% | -11.5
COc1ccc(C(=O)N[C@H](C(=O)Nc2sccc2C(N)=O)C(C)C)cc1 | -1.7% | -7.0 | -15.0 | x | 5.3% | 3.7% | -8.2
